StopGo RLuc: FMDV 2A StopGo reporter, Renilla signal; 0.32% of 120,000 active; AID 1745857; Potency, µM (series often up to 57.5 µM), without a hit: top-dose signal change, negative = less light; HEK cells with a luciferase reporter of 2A StopGo recoding; active means well fitted falling curve with a large enough effect; inconclusive means small, poorly fitted or top-dose-only effect; inactive means no such curve, though single readings can be large or run the other way; further: nearly all actives have a fitted effect of over 55% in size; overnight with compound
2A firefly: FMDV 2A StopGo reporter, firefly signal; HEK cells with a luciferase reporter of 2A StopGo recoding; Potency, µM (series often up to 57.5 µM), for the others: at the top dose signal change, negative = less light; 0.23% of 120,000 active; active = well fitted falling curve with a large enough effect; inconclusive = small, poorly fitted or top-dose-only effect; inactive = no such curve, though single readings can be large or run the other way; further: nearly all actives have a fitted effect of over 60% in size; overnight with compound
An asterisk follows results filed as active; ? = inconclusive; & = joins results of further samples; [ ] = remark or other dose. On the % scale 0 is the no-effect control and ±100 the full control effect; potency means the concentration at half of the fitted maximal effect. The list is partial, so the mix of outcomes need not match the whole.

Every second line gives: StopGo RLuc | 2A firefly
COC(=O)c1nc(NC(=O)c2ccc(Cl)cc2Cl)n[nH]1
  -4.6% | -2.5%
COc1cc(OC)cc(C(=O)N2CCC(C(=O)c3ccc4c(c3)OCCO4)CC2)c1
  14.7% | -0.3%
CC(=O)Nc1ccc(NC(=S)NC(=O)c2ccc(Cl)cc2)cc1
  22.7% | 0.0%
Cc1ccc2c(=O)cc(C(=O)Nc3cccc(C(F)(F)F)c3)oc2c1
  -8.8% | 7.0%
CCOc1ccc(NC(=O)CSC2=Nc3ccccc3C3=NC(CCC(=O)NCc4ccco4)C(=O)N23)cc1 (stereo not given)
  -17.3% | 51.2%[activator]
CC(C)(C)C(=O)NC12CC3CC(CC(C3)C1)C2
  -15.0% | -3.1%
O=S(=O)(c1ccc(-c2nc(-c3ccccc3)no2)o1)N1CCOCC1
  10.4% | 96.6%[activator]
COc1cccc(CN(C(=O)c2oc3ccccc3c2C)C2CCS(=O)(=O)C2)c1 (stereo not given)
  18.6% | 0.8%
O=C(CSc1nc2ccc(Cl)cc2[nH]1)N1N=C(c2cccs2)CC1c1ccco1 (stereo not given)
  -9.9% | 8.8%
Cc1csc(/C(C#N)=C\c2ccc(OC(F)(F)F)cc2)n1
  3.9% | 76.6%[activator]

The listing continues.
Every second line gives: StopGo RLuc | 2A firefly
CCOC(=O)Cn1cc(CN2C(C(=O)OC)CN(Cc3ccc(C)cc3)CCS2(=O)=O)nn1 (stereo not given)
  -4.8% | -11.7%
COc1ccccc1CNc1ccc(-c2nc(C)no2)cc1[N+](=O)[O-]
  10.8% | 10.0%
Clc1ccc(COc2cccc(CNc3nn[nH]n3)c2)c(Cl)c1
  39.1%[activator] | 70.0%[activator]
O=C(CN1CCCC1c1nc2ccccc2s1)NC(=O)Nc1ccc2c(c1)OCCO2 (stereo not given)
  -4.1% | 45.9%[activator]
CCN1CCN(c2oc(-c3cccs3)nc2C#N)CC1
  14.5% | 28.1%
CCOC(=O)c1cc(-c2ccc(OC)cc2)n(CCC(=O)Nc2nc3ccc(OCC)cc3s2)c1C
  8.5% | 2.5%
CCc1ccc(OCC(=O)NC(Cc2c[nH]c3ccccc23)C(=O)O)cc1 (stereo not given)
  -9.9% | -7.7%
Cc1ccc(CNC(=O)CCS(=O)(=O)c2cc3c4c(c2)CCN4C(=O)CC3)cc1
  -3.0% | -11.7%
Cc1ccccc1-n1ncc2c1ncn1nc(-c3cccs3)nc21
  0.4% | 179.4%[activator]
CCN(Cc1nc2ccccc2c(=O)[nH]1)Cc1cc(=O)oc2cc(C)c(C)cc12
  103.8%[activator] | 53.1%[activator]

(cont.)
Every second line gives: StopGo RLuc | 2A firefly
O=C(Nc1c(C(=O)c2ccccc2)oc2ccccc12)c1cc(=O)c2ccccc2o1
  -8.1% | -14.7%
CCc1ccc(OCC(=O)N(Cc2cccs2)c2ccc(Cl)cc2)cc1
  17.1% | -9.3%
Cc1cccc(OCCCSc2nc(-c3ccc(C(C)(C)C)cc3)nc3cc(=O)[nH]n23)c1C
  38.7%[activator] | 90.1%[activator]
CCOc1ccccc1C(=O)Nc1ccc(C(F)(F)F)oc1=O
  2.5% | -2.4%
COc1cc(C2NC(=O)NC(C)=C2C(=O)OCC(F)(F)F)ccc1O (stereo not given)
  3.7% | -0.5%
CCOC(=O)c1ncn2c1CN(C)C(=O)c1cc(F)ccc1-2
  -2.0% | -2.0%
CSc1nc2sc3c(c2c(=O)n1-c1ccccc1)CC(C(C)C)OC3 (stereo not given)
  -0.4% | 7.2%
O=C(NC1CCCCC1)c1cc(-c2ccc(Br)cc2)nc2ccccc12
  4.1% | -10.9%
O=C(COC(=O)c1ccccc1[N+](=O)[O-])c1ccc(F)cc1
  -14.6% | 136.4%[activator]
CC(CNC(=O)NCc1ccco1)N1CCOCC1 (stereo not given)
  -17.7% | -1.8%

More entries follow:
Every second line gives: StopGo RLuc | 2A firefly
CCOc1cccc2c1N[C@@H](c1ccc(C(=O)O)cc1)[C@H]1CC=C[C@@H]21
  -27.3% | -24.3%
CCCCCCOc1ccc(-c2ccc(C(=O)O)cc2)cc1
  6.1% | 91.9%[activator]
CSc1ccc(C2c3c(oc4cc(C)cc(C)c4c3=O)C(=O)N2Cc2ccco2)cc1 (stereo not given)
  -7.8% | -9.2%
O=C(COC(=O)C1CC2CCCC(C1)C2=O)Nc1ccc(C(F)(F)F)cc1[N+](=O)[O-] (stereo not given)
  -22.0% | -2.3%
COCC(=O)N(c1c(C)cccc1C)C(C)C(=O)OC (stereo not given)
  -3.5% | -14.2%[11.5 µM]
COc1ccc(-c2cc(C(=O)Nc3c(C)n(C)n(-c4ccccc4)c3=O)no2)cc1
  9.7% | -1.7%
c1ccc(Nc2c3c(nc4ccccc24)CCC3)cc1
  -24.0% | -11.6%
O=C(NCCS(=O)(=O)N1CCN(c2ccccc2)CC1)C1CC(=O)N(c2ccccc2)C1 (stereo not given)
  0.2%&-10.3% | 8.6%&-10.9%
COc1ccc(NC(=O)C(C)N(c2ccc(C)c(C)c2)S(C)(=O)=O)cc1Cl (stereo not given)
  2.6% | -6.9%
C[N+]1(C)[C@@H]2CC[C@H]1CC(OC(=O)C(CO)c1ccccc1)C2 (stereo not given in full)
  -3.7% | 0.0%[11.5 µM]

(continued)
Every second line gives: StopGo RLuc | 2A firefly
Cc1ccc(-c2csc(NC(=O)c3ccc(Cl)c(N4CCCC4=O)c3)n2)cc1
  -16.7% | 5.4%
Cc1ccc(NC(=O)C(=O)NCC(c2cccnc2)N2CCN(Cc3ccccc3)CC2)cc1 (stereo not given)
  -4.8% | -19.0%
CCc1ccc(-n2nc(C)c3c(C)cc(=O)n(CC(=O)Nc4ccc(OC)c(OC)c4)c32)cc1
  -7.8% | -14.4%
O=C(/C=C/c1cccs1)OC(C(=O)c1c[nH]c2ccccc12)c1ccccc1 (stereo not given)
  10.4% | -1.2%
COc1ccc(CNC(=O)c2ccc(CS(=O)Cc3ccccc3Cl)o2)cc1 (stereo not given)
  3.7% | -16.4%
COc1cccc(NC(=O)c2ncoc2-c2ccc(C)o2)c1
  7.4% | 0.0%
Cc1ccc(/C=C/C(=O)c2ccc(C#N)cc2)s1
  -1.9%[1.06 µM] | 41.9%[activator]
CCOc1ccccc1Oc1coc2cc(OC(=O)c3ccccc3F)ccc2c1=O
  0.0% | 64.1%[activator]
CCOC(=O)c1noc2ncnc(Nc3cccc(OC)c3)c12
  -7.0% | 6.5%
CCOC(=O)C1CCC(CN(Cc2ccc(OC)cc2)S(=O)(=O)c2ccc(F)c(C(=O)Nc3ccc(C)c(C)c3)c2)CC1 (stereo not given)
  -11.1% | -3.7%

Other compounds:
Every second line gives: StopGo RLuc | 2A firefly
COc1cc(OC)c(NS(=O)(=O)c2cc(-c3cnc(C)o3)ccc2OC)cc1Cl
  239.4%[activator] | 16.1%
CC1OC(OC2C(O)CC(OC3C(O)CC(OC4CCC5(C)C(CC[C@@H]6[C@@H]5CCC5(C)C(C7=CC(=O)OC7)CCC65O)C4)OC3C)OC2C)CC(O)C1O (stereo not given in full)
  0.562µM* | 0.251µM*
Cc1cccc(NC(=O)CSc2ncc(-c3ccc(Br)cc3)[nH]2)c1
  14.6% | 22.4%
Cc1ccccc1Cn1c(CN2CCC(C(=O)NCc3cccnc3)CC2)cc2ccccc21
  -1.1% | -8.3%
CCOC(=O)c1nc(NC(C)c2ccccc2)c2ccccc2n1 (stereo not given)
  7.8% | 10.4%
CCc1ccc(Nc2c3c(nc4ccccc24)CCC3)cc1
  ? | 25.1µM*
CCC(C)NC(=O)c1ccccc1NC(=O)C1CCN(S(=O)(=O)Cc2ccc(C)cc2)CC1 (stereo not given)
  45.7%[activator] | -4.2%
Cc1ccc(CCNC(=O)C(CC(C)C)NS(=O)(=O)c2ccc3c(c2)oc(=O)n3C)cc1 (stereo not given)
  -9.8% | ?
Cc1ccc(C)c(CSc2nnc(C(N)Cc3ccccc3)o2)c1 (stereo not given)
  8.3% | -0.4%
CCCN(C(=O)c1cn(C)c(=O)c2ccccc12)c1ccccc1C
  11.6% | -14.2%

Structural class, the compounds so far with bromine
Every second line gives: StopGo RLuc | 2A firefly
O=C(NC1CCCCC1)c1cc(-c2ccc(Br)cc2)nc2ccccc12
  4.1% | -10.9%
Cc1cccc(NC(=O)CSc2ncc(-c3ccc(Br)cc3)[nH]2)c1
  14.6% | 22.4%

Next results
Every second line gives: StopGo RLuc | 2A firefly
CCC(C)c1ccc(NC(=O)CCc2ncc(-c3ccc(F)cc3)o2)cc1 (stereo not given)
  -7.9% | -2.6%
CCOC(=O)CSc1ccc2nnc(CCNS(=O)(=O)c3ccccc3)n2n1
  0.0% | -20.5%
N#CC(C(=O)NCc1ccccc1)=C1CCCCC1
  32.7%[activator] | 38.1%[activator]
O=S(=O)(Nc1ccc(-c2cn3ccsc3n2)cc1)c1ccccc1
  123.8%[activator] | 121.2%[activator]
Cc1cccc(-n2c(SCC(=O)N3CCCC3=O)nc3ccccc3c2=O)n1
  -4.3% | 2.9%
Cc1cc(C(=O)NCCCN2CCCCCC2=O)c2ccc(F)cc2n1
  -13.7% | 17.8%
CC(NC(=O)c1ccc(Cn2c(=O)c3cccn3c3cccnc32)cc1)c1ccccc1 (stereo not given)
  -9.6% | 13.0%
CCC(C)NC(=O)Cc1ccc(S(=O)(=O)N2CCCCC2)cc1 (stereo not given)
  -10.6% | -6.8%
COc1cccc(-c2nc(S(=O)(=O)c3ccc(Cl)cc3)c(NCc3ccccc3)o2)c1
  -0.3% | -14.7%
Cc1nn2c(=O)cc(COC(=O)c3ccco3)nc2s1
  9.6% | -17.0%

New compounds follow
Every second line gives: StopGo RLuc | 2A firefly
CCCOc1ccccc1C(=O)N1CCCCC1CCN1CCCCC1 (stereo not given)
  12.1%&0.2% | 9.7%&15.0%
COc1ccc(OC)c(CCNC(=O)CSCc2cnn(-c3ccccc3)c2-n2cccc2)c1
  -0.8% | -21.1%
Cc1ccccc1NC(=O)CCNS(=O)(=O)c1ccc2c(c1)CCN2C(=O)C1CC1
  65.1%[activator] | 2.0%
CC(C)C(NC(=O)c1ccncc1)C(=O)O (stereo not given)
  8.4% | -5.3%
CC(Oc1ccccc1)C(=O)Nc1nnc2n1CCS2 (stereo not given)
  -12.7% | -9.7%
Cc1ccc2c(Cl)cc(Cl)c(OCC(=O)NC(=O)NC(C)(C)C)c2n1
  1.2% | 11.2%
Cn1c(C(=O)NCCNC(=O)c2ccccc2F)cc2ccccc21
  ? | ?
Clc1ccc(CN2CCc3nc(Nc4ccc5c(c4)OCCO5)ncc3C2)cc1
  -23.3% | 49.4%[activator]
Cc1noc(C)c1S(=O)(=O)NCCc1csc2nc(-c3ccc(Cl)cc3)nn12
  84.4%[activator] | -17.1%
c1ccc(-c2nnc3ccc(SCc4ccco4)nn23)cc1
  -16.0% | -15.5%

Later entries
Every second line gives: StopGo RLuc | 2A firefly
Cc1ccc(CNCc2ccc(C)s2)cc1
  -8.5% | 0.0%
COc1ccc(-n2cc(-c3ccccc3)c3c(SC(C)C(C)=O)ncnc32)cc1 (stereo not given)
  -7.8% | -14.0%
Cc1ccc(NC(=O)c2sc3ncnc(N(C)C4CCCCC4)c3c2C)cc1
  -2.9% | 0.4%
Cc1ccc(Cl)cc1N1CCN(C(=O)c2cc(S(=O)(=O)N3CCCCC3)cn2C)CC1
  -2.6% | -4.3%
COc1ccc2nc(-n3ncc4c3NC(=O)CC4c3cc(OC)c(OC)c(OC)c3)sc2c1 (stereo not given)
  -5.2% | 15.6%
CSc1cccc(NC(=O)C2CCCN(S(=O)(=O)c3ccc4c(c3)CCCN4C(C)=O)C2)c1 (stereo not given)
  ? | ?
COC(=O)c1ccc2c(=O)n(CCCCCC(=O)NC(C)C)c(=O)[nH]c2c1
  23.0% | 26.8%
Cn1cnc2c1c(=O)n(CCCSCc1cccc(Br)c1)c(=O)n2C
  12.5% | 18.8%
Cc1cc2nc(SCC(=O)Nc3cc(Cl)ccc3C)[nH]c(=O)c2[nH]1
  22.5% | 21.7%
O=C(/C=C/c1ccc(Cl)cc1Cl)c1ccccc1OC(F)F
  23.5% | 52.9%[activator]

(listing goes on)
Every second line gives: StopGo RLuc | 2A firefly
CCOC(=O)c1c(S(=O)(=O)NCC(=O)NCc2cccc(C)c2)c(C)n(C)c1C
  49.8%[activator] | -17.0%
O=C(Cc1ccc2ccccc2c1)Nc1cccc2cccnc12
  2.4% | 59.9%[activator]
Cc1nnc(NC(=O)C(Oc2ccccc2)c2ccccc2)s1 (stereo not given)
  4.3% | -1.6%
CCCCC(CC)C(=O)Nc1ccccc1Br (stereo not given)
  0.3% | -8.7%
Cc1[nH]c2ccccc2c1C(=O)/C(C#N)=C\c1cccc(Br)c1
  -2.9% | -2.7%
Cc1ccc(C)c(CN2C(=O)c3ccccc3S(=O)(=O)c3ccc(C(=O)NCCCN4CCCC(C)C4)cc32)c1 (stereo not given)
  165.4%[activator] | 0.0%
Cc1cc(F)ccc1-n1c(SCC(=O)NC2CCCC2)nc2ccsc2c1=O
  -9.6% | -19.9%
CN1CCN(NC(=O)c2cccc(Cl)c2)CC1
  -3.6% | 4.8%
COc1ccc(C(=O)COC(=O)CCC(=O)c2ccc3c(c2)OCCO3)cc1
  9.9% | 0.0%
COc1cc(Cl)c(NS(=O)(=O)c2cc(-c3cc(C)no3)ccc2OC)c(OC)c1
  297.4%[activator] | 12.3%
Cc1ccc2oc(C(=O)N(Cc3cccc(Cl)c3)C3CCS(=O)(=O)C3)cc(=O)c2c1 (stereo not given)
  10.1% | -4.2%
CCC(C)NC(=O)C12CC3CC(CC(Cl)(C3)C1)C2 (stereo not given)
  -2.5% | -7.9%
